Screening data (PubChem BioAssay)
AID504770: E. coli YBA685 growth inhibition, screen for V. cholerae RctB inhibitors | E. coli YBA685 rctB-dependent plasmid, OD600 growth, 3 h; hits give low values | z-score (test concentration not listed) | 130,000 compounds, 0.27% hits | AID 504770;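 active = z-score under -2 on both plates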;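 also: wells of about 30 µL received 100 nL stock; score is relative to mean and SD of the test wells; the first replicate is given; strong numbers were not always called active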
CapD inh: CapD enzyme inhibition; z-score (test concentration not listed); purified CapD enzyme, fluorescence intensity read-out; hits give low values; some hits fall short of the stated cut; 140,000 compounds, 0.23% hits;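 active = z-score under -4 in either of two replicates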;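 also: stock transfer was 100 nL into about 40 µL; score is relative to mean and spread of the plate; one replicate is shown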
Starred values were filed as active, the others as inactive; x = not tested or not shown. Outcome played no part in choosing rows, and some 0.41% of all compounds hit somewhere here.

Values in the order: AID504770 | CapD inh
> CC(=O)n1c2ccc(F)cc2c2nc3ccccc3nc21
    x | 0.09
> CC12COC3(CN)CC1CCC32C (centres undefined)
    -1.15 | 0.195
> Cc1cc(=O)[nH]c(N/N=C/C(C)c2ccccc2)n1 (centres undefined)
    0.3 | 0.21
> CCOc1ccc(-c2n[nH]c(=S)n2C2C=CCCC2)cc1 (centres undefined)
    -0.1 | 0.145
> CCOc1ccc(OCCn2ccnc2)cc1
    -1.05 | 0.09
> COc1cc(-c2c(C#N)c(N)nc(SCC(N)=O)c2C#N)cc(OC)c1OC
    x | 0.575
> O=C(N/C=C/c1ccccc1Cl)OCc1ccc(Br)cc1
    x | -0.65
> CCCc1cc(OC(=O)N(C)C)nc(-c2cccc(C)c2)n1
    -0.65 | -0.28
> Cc1ccc(C)c(NC(=O)C(NCC(C)(C)N2CCOCC2)c2ccccc2)c1 (centres undefined)
    -0.6 | x
> O=C(NC1C2CC3CC(C2)CC1C3)c1ccc(Br)o1 (centres undefined)
    -0.65 | 0.17

Values in the order: AID504770 | CapD inh
> COc1ccc(Cl)cc1NC(=O)Nc1ccc(N(C)C)cc1
    0.1 | 1.73
> Cc1cc(-n2c(SCc3ccccc3Cl)nc3n[nH]c(C)c3c2=N)ccc1Cl
    1.35 | 0.225
> Cc1ccc(S(=O)(=O)NC(=O)N2CCCN(Cc3ccccc3)CC2)cc1
    x | -0.26
> CSc1ccccc1-n1nnnc1SCc1ccccc1
    -1.2 | 0.345
> Cc1ccc(N2C(=O)c3ccccc3C2(O)Cc2ccccc2)cc1 (centres undefined)
    -0.3 | 1.24
> CC1CN(c2nc(-c3ccc(Cl)cc3)c(S(C)(=O)=O)cc2C#N)CC(C)O1 (centres undefined)
    x | -0.015
> CC1(C)N=C(c2ccc(Cl)cc2)C(=S)N1
    -0.3 | -0.835
> COc1ccc(-n2nnnc2SCc2nc(N)nc(N3CCOCC3)n2)cc1
    x | -0.49
> CC1CCC(=O)C(C2(O)C(=O)Nc3ccccc32)C1 (centres undefined)
    -0.5 | x
> CCOC(=O)N1CCN(C(=O)C(C)Oc2ccc(C(C)(C)C)cc2)CC1 (centres undefined)
    -0.1 | -0.365

Values in the order: AID504770 | CapD inh
> Clc1ccc(CN=C(Nc2ccccc2)NC2CCCCC2)c(Cl)c1
    x | 0.15
> CCOC(=O)N1CCC(NCc2ccco2)CC1
    0.4 | 0.455
> CCOc1ccc(Br)cc1S(=O)(=O)Nc1ncn[nH]1
    -0.9 | x
> CC(C)(C)c1ccc(C2Nc3ccccc3C(=O)N2c2ccc(Br)cc2)cc1 (centres undefined)
    x | 14.4
> CC1Oc2ccc(N)cc2N(C)C1=O (centres undefined)
    -0.4 | x
> O=C(Nn1c(Cc2ccccc2)nc2ccccc2c1=O)c1ccco1
    0.15 | x
> O=C(CSc1ccnc(=O)[nH]1)N1CCCCC1
    1.85 | x
> COC(=O)c1ccc(C[N+]2(C)CCCCC2)cc1
    2.45 | -0.87
> C=CCNc1nc(Nc2ccc(F)cc2)nc(OC(C(F)(F)F)C(F)(F)F)n1
    x | -0.515
> O=C(CSC1=NCCS1)NC1CCCCC1
    -0.75 | -0.13

Values in the order: AID504770 | CapD inh
> COc1ccc(Br)cc1C1=N/C(=C\c2cccc(OC)c2OC)C(=O)O1
    x | 0.215
> COc1ccc(/C(C)=N/NC(=O)CC2(C)OCCO2)c(OC)c1
    0.7 | -0.56
> CCN(CCc1ccccn1)C(=O)NCCc1cc(OC)ccc1OC
    x | -0.68
> C/C(=N\N)c1ccc(OC(C)C)c(CN2CCOCC2)c1
    0.1 | x
> Cc1onc(-c2ccccc2Cl)c1C(=O)NC(=S)NC1CCS(=O)(=O)C1 (centres undefined)
    0.7 | x
> O=C(NCCNc1ccc([N+](=O)[O-])cn1)OCc1ccc(C#Cc2ccccc2)s1
    x | -2.24
> CCOc1ccc2c(c1)/C(=C1/SC(C(C)=O)=C(c3ccccc3)S1)C(=S)C(C)(C)N2C(=O)C(C)CC (centres undefined)
    x | -0.495
> O=C(CSc1nc2ccccc2s1)N=Nc1c(O)n(CN2CCCC2)c2ccccc12
    -0.45 | x
> Cc1ccccc1OCC(=O)NC(C)c1ccccc1 (centres undefined)
    -0.95 | -0.175
> CCOC(=O)/C(C#N)=C/N1CCCc2ccccc21
    -0.75 | x

Values in the order: AID504770 | CapD inh
> Cc1onc(-c2c(Cl)cccc2Cl)c1C(=O)Oc1ccc(-c2ccc(OC(=O)c3c(-c4c(Cl)cccc4Cl)noc3C)cc2)cc1
    x | 0.23
> CC1=C(OC(=O)c2cccs2)C(=O)CC1
    2.15 | 0.425
> CCOC(=O)N1CCC(NC(=O)Cn2nc(Cc3cccnc3)c3ccccc3c2=O)CC1
    0.05 | 67.6
> O=C(CCCc1ccccc1)N1N=C(c2ccccc2)CC1(O)C(F)(F)F (centres undefined)
    x | -0.255
> COc1ccc(C2CC(=O)Oc3ccc(C(C)(C)C)cc32)cc1 (centres undefined)
    -0.25 | -0.055
> CCOc1ccc(CNC(=O)CCC(=O)N2CCOc3ccccc32)cc1
    0.4 | -0.225
> CCOc1nc(-c2ccc(Cl)cc2)nc2ccccc12
    -0.25 | -0.1
> O=S1(=O)N=C(Oc2ccccc2)c2ccccc21
    -0.15 | 0.33
> O=C(COC(=O)c1ccc(N2C(=O)C3C4C=CC(C4)C3C2=O)cc1)c1ccc(Cl)c([N+](=O)[O-])c1 (centres undefined)
    x | 0.135
> CC(Sc1nnc(CC(=O)Nc2ccccc2)n1C)C(=O)Nc1nccs1 (centres undefined)
    -0.7 | x

Full records, looked up by structure. Order of screens: AID504770	CapD inh
`CC1=C(OC(=O)c2cccs2)C(=O)CC1` across the screens: 2.15	0.425
`CCOc1nc(-c2ccc(Cl)cc2)nc2ccccc12` across the screens: -0.25	-0.1
`O=C(CCCc1ccccc1)N1N=C(c2ccccc2)CC1(O)C(F)(F)F` (centres undefined) across the screens: x	-0.255

Carrying on.
Values in the order: AID504770 | CapD inh
> O=C(c1ccc2c(c1)OCO2)N1CCC(CN2C(=O)c3cccc4cccc(c34)C2=O)CC1
    x | 49.1
> NC(=S)c1ccc(C2SCCS2)cc1
    x | -0.285
> CCS(=O)(=O)N1CCN=C1SCc1ccccc1
    -0.65 | x
> FC(F)(F)c1cc(NC(=S)N2CCCCC2CCN2CCOCC2)cc(C(F)(F)F)c1 (centres undefined)
    x | -0.65
> CCCC(=O)Nc1c2c(nc3ccccc13)N(c1ccccc1)CC2
    0.2 | x
> CCNC(=O)Oc1ccccc1
    -1 | 0.37
> c1ccc2c(N3CCOCC3)nnc(N3CCOCC3)c2c1
    -0.25 | 0.005
> O=C(CCCc1c[nH]c2ccccc12)N1CCN(c2ccc(F)cc2)CC1
    2.2 | 0.09
> O=C(NCc1ccccn1)c1ccccc1C(=O)c1cc(C(F)(F)F)cc(C(F)(F)F)c1
    -0.6 | -0.665
> Cc1c(Cl)cccc1-n1c(SCC(=O)NCCc2ccc(S(N)(=O)=O)cc2)nc2n[nH]c(C)c2c1=N
    x | 0.17

Continued, overlapping the part above by five compounds.
Values in the order: AID504770 | CapD inh
> CCNC(=O)Oc1ccccc1
    -1 | 0.37
> c1ccc2c(N3CCOCC3)nnc(N3CCOCC3)c2c1
    -0.25 | 0.005
> O=C(CCCc1c[nH]c2ccccc12)N1CCN(c2ccc(F)cc2)CC1
    2.2 | 0.09
> O=C(NCc1ccccn1)c1ccccc1C(=O)c1cc(C(F)(F)F)cc(C(F)(F)F)c1
    -0.6 | -0.665
> Cc1c(Cl)cccc1-n1c(SCC(=O)NCCc2ccc(S(N)(=O)=O)cc2)nc2n[nH]c(C)c2c1=N
    x | 0.17
> COc1cccc(N/C(SCc2cccc([N+](=O)[O-])c2)=C(/C#N)C(N)=O)c1
    x | 0.165
> COc1ccc(CNC(=O)c2cc3nc(-c4ccc([N+](=O)[O-])cc4)cc(C(F)(F)F)n3n2)cc1
    x | -0.57
> CC(C)(CNC(=O)c1ccccc1NS(C)(=O)=O)N1CCCCC1
    -0.7 | x
> N#C/C(=C\N1CCN(Cc2ccccc2)CC1)S(=O)(=O)c1ccc(Cl)cc1
    2 | -0.81
> O=C(COc1ccc(-c2nnco2)cc1)N1CCSc2ccccc21
    0.15 | x
> O=C(NC1CCCCNC1=O)c1ccc(N2CC3CC(C2)c2cccc(=O)n2C3)c(NC(=O)c2ccccc2Cl)c1 (centres undefined)
    x | 0.105
> O=C(O)C1CCC(CNCc2c(Cl)cccc2Cl)CC1 (centres undefined)
    -0.5 | 0.605
> O=C(Nc1csc2ccccc12)N1CCOCC1
    -0.1 | 0.11
> CCCNS(=O)(=O)c1ccc(CCC(=O)NC2CCCC2)cc1
    -0.6 | -0.275
> Cn1c(=O)oc2cc(NC(=O)c3ccccc3)ccc21
    0.6 | -0.86

Values in the order: AID504770 | CapD inh
> COC(=O)c1ccc(C2C(C#N)=C(N)Oc3n[nH]c(C45CC6CC(CC(C6)C4)C5)c32)cc1 (centres undefined)
    x | 0.525
> CSc1sc(C#N)c2c1S(=O)(=O)N(C)c1ccccc1-2
    -0.65 | -0.255
> Cc1[nH]c2c(C)cccc2c(=O)c1CN1CCOCC1
    0.3 | x
> CCCCn1c(=O)n(C)c(=O)c2cc3c(nc21)-c1cc(F)ccc1OC3O (centres undefined)
    0.45 | x
> CCN(CC)c1ccc2ccc(=O)oc2c1
    -0.65 | x
> O=C(C1CC(=O)N(c2ccccc2)C1)N1CCc2ccccc2C1 (centres undefined)
    0.2 | 1.01
> CCOC(=O)C1=C(N)OC2=C(C(=O)CC(C)(C)C2)C1c1ccc(O)c(OC)c1 (centres undefined)
    x | -1.11
> Cc1[nH]n(-c2ccccc2)c(=O)c1Sc1c(F)c(F)c(F)c(F)c1F
    1.7 | x
> O=C(Nc1ccccc1C(=O)O)c1cc[n+]([O-])cc1
    -0.4 | 0.425
> COc1ccc(-n2nc3cc(C)c(NC(=S)NC(=O)c4oc5ccccc5c4C)cc3n2)cc1
    0.05 | 0.295

Values in the order: AID504770 | CapD inh
> CC1(C)CC(=O)C=C(NCC2CCN(C(=S)Nc3ccccc3)CC2)C1
    -0.45 | 60.3
> O=S(=O)(NC1CCc2ccccc21)c1ccc(S(=O)(=O)N2CCCC2)cc1 (centres undefined)
    1.4 | x
> COc1ccc(CCC(=O)NCc2cn3ccc(C)cc3n2)cc1
    0.2 | 1.81
> O=C(NNC(=O)c1sccc1-n1cccc1)c1ccccc1C(F)(F)F
    x | -0.48
> CC(=O)NC(NC(C)=O)c1ccccc1
    -0.85 | x
> O=C(Cn1c(C(F)(F)F)nc2ccccc21)Nc1ccccc1C(F)(F)F
    x | -0.435
> CCCCS(=O)(=O)/C=C/C1C2C=CC(C2)C1S(=O)(=O)CCCC (centres undefined)
    1.35 | -0.235
> CN(C(=O)COC(=O)c1cncc(Br)c1)c1ccccc1
    0.55 | -0.16
> Cn1c(=O)c(NC2CCCCC2)c2c3c(cccc31)C(=O)c1ccccc1-2
    x | -0.21
> COCCC[n+]1c(C)csc1Nc1c(C)cc(C)cc1C
    x | -0.35

Values in the order: AID504770 | CapD inh
> O=C(NC1CCCc2ccccc21)c1cccs1 (centres undefined)
    0.35 | x
> CC1=CC(c2ccccc2)=Nc2ccc(C)cc2N1
    0.1 | x
> Clc1ccccc1-c1nnc(CNC2CC2)o1
    -1 | x
> Clc1ccc(-c2ccnc3nc(N4CCOCC4)nn23)c(Cl)c1
    x | -0.015
> Cc1cccc2c(-c3ccccc3)cc(=O)[nH]c12
    2 | 4.57
> COc1cc(/C=N/Nc2nc(C)cc(=O)[nH]2)ccc1O
    0.3 | x
> CCN(CC)C(=O)Sc1c(Br)cc(Br)cc1Br
    -0.5 | -0.12
> COc1ccc2c(c1)C(=O)N(Cc1ccccc1)C(=O)C2
    0.55 | -0.065
> O=C(O)c1ccccc1Nc1ccccn1
    -0.05 | x
> c1ccc(-c2nc(-c3ccn[nH]3)cs2)cc1
    -0.55 | 4.8

Values in the order: AID504770 | CapD inh
> O=C(CSc1nc2ccccc2c(=O)n1-c1ccccc1)NCCc1ccccc1
    2 | -0.43
> Cc1cc(NCc2cccnc2)no1
    -1.05 | -0.2
> CCCCc1nc(Cl)c(CO)n1Cc1ccc(-c2ccccc2-c2nn[nH]n2)cc1
    -0.4 | x
> C=CCN1C(=O)/C(=C2\SC(N)=NC2=O)c2ccccc21
    2.45 | -0.03
> O=C(COc1nccc2ccccc12)N1CCCc2ccccc21
    -0.2 | x
> NC(=S)N/N=C1\CCCC\C1=C/c1ccco1
    -0.2 | -2.85
> CCOC(=O)C1CCCN(CCCc2ccccc2)C1 (centres undefined)
    -0.45 | -0.68
> CN1c2ccccc2C(=O)/C(=C\Nc2ncccn2)S1(=O)=O
    0.05 | 1.88
> CC1CN(C(=O)Cc2ccc(Cl)cc2)CC(C)O1 (centres undefined)
    -0.15 | 0.24
> COc1ccc2c(c1)-c1c(ssc1=Nc1ccccc1)C(C)(C)N2
    x | -0.34

Values in the order: AID504770 | CapD inh
> CCOc1ccc(-c2noc(CCC(=O)O)n2)cc1
    0.2 | 0.65
> CC(C)(C)C(=O)COC(=O)c1cc(-c2ccco2)nc2ccccc12
    -0.3 | x
> N#CC1=C(N2CCOCC2)N=P(c2ccccc2)(c2ccccc2)N=C1c1ccccc1
    x | 0.08
> CCCCCn1c(SCC(=O)c2ccc(Cl)cc2)nc2cc(C(=O)N3CCC(C(N)=O)CC3)ccc2c1=O
    x | -0.33
> O=C(CNCc1ccc2c(c1)OCO2)NCc1ccc2c(c1)OCO2
    -0.5 | 0.035
> COC(=O)c1cc(NC(=O)C2CC(=O)NC3=C2C(=O)CCC3)cc(C(=O)OC)c1 (centres undefined)
    -0.15 | x
> COc1ccc(C(=O)NCc2nnc(SC/C=C/c3ccccc3)o2)cc1
    0.35 | -0.35
> Nc1nnc2c(Nc3ccccc3)nc3nonc3n12
    0.15 | x
> Cc1ccc(CSc2nc(-c3ccccc3)nnc2C(F)(F)F)cc1
    x | -0.335
> CC(C(=O)N1CCc2ccccc21)N(C)CC(=O)Nc1ccccc1Cl (centres undefined)
    -0.35 | x
> CN1C(=O)/C(=C/c2ccccc2Cl)Sc2ccc(C(=O)O)cc21
    -0.5 | 0.465
